Source: PubChem (several laboratories)
RanGTP-Impb inh: disruptors of Ran-importin-beta complex formation – biochemical, FRET, CFP-Ran, YFP-importin-beta, homogeneous, primary screen; inhibition, % (concentration not given with the values); 300,000 tested, 1.1% active; cell-free CFP-Ran/YFP-importin-beta FRET ratio; AID 2216;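 active = most replicates above 15%; inconclusive = exactly half above 15%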;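 note: 0% = DMSO wells and 100% = Ran loaded with GDP instead of GTP; wells of about 40 µL received 100 nL stock; the first replicate is given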
Vif TR-FRET: inhibitors of Vif binding to APOBEC3G peptide, primary screen, biochemical, TR-FRET, GST-Vif 1-94, biotin-A3G peptide, dose response retest (AID 1117319); TR-FRET GST-Vif / biotin-A3G peptide binding; higher % means a stronger effect; test concentration not given here; strong numbers were not always called active; inhibition, %; hits with a dose series show IC50 in µM; 260,000 tested, 0.57% active;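 active = above the screen mean plus three standard deviations and confirmed in dose response; inconclusive = results disagree or hit not tested in dose response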;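 note: Vif residues 1-94 fused to GST binding biotinylated APOBEC3G peptide 110-148; 0% = full assay without inhibitor and 100% = GST in place of GST-Vif; retest series ran down from 100 µM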
ALR H2O2 inh: human ALR oxidase inhibition via reduced H2O2; inhibition, % (concentration not given with the values); P55789; purified ALR, DTT oxidation, H2O2 HRP-luminol luminescence; 290,000 tested, 3.8% active;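 active = mean and each replicate at 75% or more; inconclusive = only one of the two met; inactive = neither met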;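 note: stock transfer was 7.5 nL into about 7.5 µL; 0% = neutral wells and 100% = wells with inactivated enzyme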
Target sequence (P55789 whole entry, looked up): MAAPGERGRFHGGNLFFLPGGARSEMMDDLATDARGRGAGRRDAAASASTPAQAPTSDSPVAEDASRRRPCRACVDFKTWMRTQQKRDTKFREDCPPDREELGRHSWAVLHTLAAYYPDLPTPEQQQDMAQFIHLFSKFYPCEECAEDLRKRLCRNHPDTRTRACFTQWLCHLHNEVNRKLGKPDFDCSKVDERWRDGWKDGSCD
Calb FLC: affects C. albicans growth with fluconazole. C. albicans CaCi-2 (fluconazole-resistant clinical isolate) + fluconazole, Alamar Blue growth, 48 h. growth inhibition, % (no concentration beside the values). 300,000 tested, 0.57% active;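 active = most replicates above 75%; inconclusive = exactly half above 75%; inactive = most below 75%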;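 note: all wells also contain fluconazole at 8 µg/ml as a sub-toxic cotreatment; 0% = median of DMSO wells and 100% = median of geldanamycin control wells; wells of about 8 µL received 7.5 nL stock; the first replicate is given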
LANA-H2B inh: blocks KSHV LANA binding to histone H2A/H2B. inhibition, % (test concentration not listed). Q9QR71. cell-free LANA-H2A/H2B peptide, fluorescence polarization. 320,000 tested, 0.6% active; in the data active = inhibition mostly above about 10%, no sharp cut-off; inactive = mostly below about 6.7%;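 note: stock transfer was 7.5 nL into about 10 µL; 0% = median of vehicle wells and 100% = median of positive control wells; one replicate is shown; the record names a cut of 25% in any replicate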
B2AR ag: agonists of human beta-2 adrenergic receptor inducing internalization | AID 504454 | response, % (no concentration beside the values) | Am2.2-beta2AR cells, FAP receptor internalization, flow cytometry; reference of the scale not given here | 340,000 tested, 0.43% active;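 active = response above a set limit, near 3 SD of response in nonfluorescent compounds, cut at about 42% in these data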;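 note: stock transfer was 100 nL into about 11 µL; a reference agonist was the positive control; negative values mostly stem from fluorescent compounds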
HNF4A DNA FP: change in binding of human HNF4 alpha to DNA; HNF4a-FITC DNA binding, fluorescence polarization, 1 h; activity change, % at 10 µM; 360,000 tested, 0.3% active; AID 1224865; in the data active = activity change above about 30%, passing the limit was not always enough;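 note: controls were the assay level and a saturating level of protein; the project sought stronger binding though the title names inhibitors; some compounds called inactive have numbers as strong as hits; positive values seem to mean higher polarization but the record does not say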
Target sequence (P41235 whole entry, looked up): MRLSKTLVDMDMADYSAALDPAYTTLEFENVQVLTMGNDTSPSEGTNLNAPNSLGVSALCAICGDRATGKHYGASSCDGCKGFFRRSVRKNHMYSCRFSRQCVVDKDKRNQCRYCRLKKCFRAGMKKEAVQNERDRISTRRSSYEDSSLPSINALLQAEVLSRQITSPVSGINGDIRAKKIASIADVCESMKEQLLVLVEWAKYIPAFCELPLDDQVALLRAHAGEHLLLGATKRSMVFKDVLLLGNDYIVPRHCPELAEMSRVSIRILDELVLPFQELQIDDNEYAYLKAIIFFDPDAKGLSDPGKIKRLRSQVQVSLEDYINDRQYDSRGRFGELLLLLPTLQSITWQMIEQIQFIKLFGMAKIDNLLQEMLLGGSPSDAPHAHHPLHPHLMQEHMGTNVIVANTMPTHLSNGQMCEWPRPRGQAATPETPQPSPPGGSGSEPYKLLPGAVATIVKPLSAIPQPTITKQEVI
* marks the source's active call; other numbers are inactive results; u = inconclusive; x = not tested or not shown; & = joins results of further samples.

Values in the order – RanGTP-Impb inh	Vif TR-FRET	ALR H2O2 inh	Calb FLC	LANA-H2B inh	B2AR ag	HNF4A DNA FP
1. COc1cc(NC(=O)Cn2ccsc2=N)c(C)cc1[N+](=O)[O-]
  8.2	-1%	-10	4	1.6	-4	-0.9
2. Cn1c(CSCc2ccc(Cl)cc2)nnc1SCC(=O)Nc1nccs1
  1.2	-4%	-2	4	-4.7	3	4.7
3. CCN(CC)CC(C)(C)COC(=O)c1oc2ccccc2c1C
  1.4	-6%	x	1	0.2	-8	7.9
4. c1ccc(OCCN2CCN(C(c3ccccc3)c3ccccc3)CC2)cc1
  4.8	x	-3	2	-2.9	2	-1.9
5. CC(=O)Nc1sc2c(c1C(N)=O)CCC2
  -2.4	0%	48	30	3.1	-3	2.5
6. CCOC(=O)CCCCC(=O)c1[nH]c(=O)[nH]c1C[n+]1ccc(C)cc1
  -2.6	-26%	41	-17	4.0	-6	-0.1
7. Cc1ccc(NS(=O)(=O)c2cc(NC(=O)c3cc4c(s3)CCCC4)ccc2C)c(C)c1
  -6.5	-7%	-5	0	-4.1	1	0.7
8. CCOC(=O)CSc1nc2cc(OCC)ccc2cc1C#N
  3.3	-30%	-5	23	2.3	11	13
9. O=C(NNC1=C(C(=O)C(F)(F)F)CCC1)c1cccc(Cl)c1
  -0.6	0%	25	101*	-3.8	4	1.9
10. O=c1[nH]n(CCO)c(=O)c2cccnc12
  -0.4	-6%	-7	-1	-3.1	0	-3.5
11. Cc1ccn2cc(-c3cccc(NC(=O)C(C)C)c3)nc2c1
  -10	12%	4	-9	-3.2	-3	-1.9
12. O=C(Cc1c(F)cccc1Cl)Nc1ccc(S(=O)(=O)N2CCCC2)cc1
  -1.0	1%	3	-11	0.8	1	1.3
13. CCOc1cc(/C=C2\C(=O)N(CCC#N)N=C2C)ccc1OCC(N)=O
  -0.9	23%	-16	-3	5.0	9	8.1
14. O=C(NCCc1ccc2c(c1)OCCO2)c1cc2ccccc2o1
  6.0	9%	4	-19	3.1	7	2.8
15. COc1ccc(NC(=O)CSCC(=O)N(C)Cc2c(F)cccc2Cl)cc1
  -3.3	-3%	-1	-7	-0.9	-1	4.8
16. COCCn1c(=O)[nH]c2cc(C(=O)Nc3ccc(OC)c(Cl)c3)ccc2c1=O
  -3.2	x	1	8	-1.4	14	-1.9
17. Cc1cccc(OCC(=O)Nc2cc(C)c(C)cc2O)c1
  -0.2	15%	1	-16	5.0	3	-0.8
18. O=[N+]([O-])c1ccc(C[n+]2ccccc2)cc1
  6.2	x	-10	2	-4.6	0	4.3
19. Cc1ccccc1-n1nc(C)c2cc(C(=O)NC3CC3)sc21
  -1.9	8%	-1	49	0.5	-17	-2.8
20. O=C(NCC1COc2ccccc2O1)c1cccc(S(=O)(=O)N2CCCCC2)c1 (centres undefined)
  x	-3%	-4	x	4.1	-1	-3.0

5 records picked at random from those above:
Values in the order – RanGTP-Impb inh	Vif TR-FRET	ALR H2O2 inh	Calb FLC	LANA-H2B inh	B2AR ag	HNF4A DNA FP
17. Cc1cccc(OCC(=O)Nc2cc(C)c(C)cc2O)c1
  -0.2	15%	1	-16	5.0	3	-0.8
11. Cc1ccn2cc(-c3cccc(NC(=O)C(C)C)c3)nc2c1
  -10	12%	4	-9	-3.2	-3	-1.9
20. O=C(NCC1COc2ccccc2O1)c1cccc(S(=O)(=O)N2CCCCC2)c1 (centres undefined)
  x	-3%	-4	x	4.1	-1	-3.0
7. Cc1ccc(NS(=O)(=O)c2cc(NC(=O)c3cc4c(s3)CCCC4)ccc2C)c(C)c1
  -6.5	-7%	-5	0	-4.1	1	0.7
5. CC(=O)Nc1sc2c(c1C(N)=O)CCC2
  -2.4	0%	48	30	3.1	-3	2.5

Returning to the listing, repeating the 5 entries before the break.
Values in the order – RanGTP-Impb inh	Vif TR-FRET	ALR H2O2 inh	Calb FLC	LANA-H2B inh	B2AR ag	HNF4A DNA FP
16. COCCn1c(=O)[nH]c2cc(C(=O)Nc3ccc(OC)c(Cl)c3)ccc2c1=O
  -3.2	x	1	8	-1.4	14	-1.9
17. Cc1cccc(OCC(=O)Nc2cc(C)c(C)cc2O)c1
  -0.2	15%	1	-16	5.0	3	-0.8
18. O=[N+]([O-])c1ccc(C[n+]2ccccc2)cc1
  6.2	x	-10	2	-4.6	0	4.3
19. Cc1ccccc1-n1nc(C)c2cc(C(=O)NC3CC3)sc21
  -1.9	8%	-1	49	0.5	-17	-2.8
20. O=C(NCC1COc2ccccc2O1)c1cccc(S(=O)(=O)N2CCCCC2)c1 (centres undefined)
  x	-3%	-4	x	4.1	-1	-3.0
21. CC(C)CC(=O)NC(=S)Nc1ccc(NC(=O)c2ccco2)cc1
  0.0	-2%	1	-6	3.8	-10	-1.9
22. C=CCOC(=O)CN1C(=O)c2ccccc2C1=O
  -0.5	75%	-7	-11	3.5	-2	2.5
23. CCOc1ccccc1OCCN1CCC(Cc2ccccc2)CC1
  2.6	0%	0	54	-1.3	-43	0.9
24. CCCCC1=CC2=C(c3ccco3)C(=O)C(C)(OC(=O)c3ccc(OC)cc3)C(=O)C2=CN1Cc1ccc(OC)cc1 (centres undefined)
  -6.9	u	x	22	x	x	x
25. O=C(NCCCN1CCOCC1)c1cccc(S(=O)(=O)N2CCOCC2)c1
  x	-9%	x	x	-8.6	-3	-2.8
26. O=C(Oc1ccc(/C=N/NC(=O)c2ccco2)cc1)c1ccccc1
  x	-13%	0	x	-2.6	-3	-0.6
27. Cc1cccnc1NC(=O)CCc1nnc2ccc(N3CCC4(CC3)OCCO4)nn12
  1.0	18%	-2	-1	2.6	3	2.5
28. CC1(C)Nc2cccc3cccc(c23)N1
  x	6%	x	x	x	-2	-1.1
29. COCCCNC(=S)NNC(=S)Nc1ccc(OC)cc1
  -1.2	x	38	-19	-0.8	-6	6.1
30. NC(=O)c1nsc(C(=O)N(c2cccc(F)c2)C(C(=O)NCc2ccccc2)c2ccc(O)cc2)c1N (centres undefined)
  2.6	x	0	14	4.4	1	-2.1
31. CCC(C(=O)NCCCN1CCCCCC1)n1nc(C)c2sc3ccccc3c2c1=O (centres undefined)
  -1.1	x	-11	5	-7.3	2	-1.4
32. Cc1cc(C)n(C(=O)CNC(=O)c2ccccc2Br)n1
  u	x	-5	-6	5.6	-3	-1.3
33. CS(=O)(=O)N1CCN(c2ccc(NC(=O)c3cc4ccccc4o3)cc2)CC1
  0.5	6%	-22	4	-4.2	-5	2.2
34. O=C(CC1CCCC1)OCn1nnc2ccccc2c1=O
  3.6	4%	x	u	3.3	3	0.9
35. Cc1ccc2nc(NC(=S)NC(=O)c3ccco3)sc2c1
  5.1	-17%	1	6	x	1	0.9
36. CCCCNC(=O)Oc1c(Br)cc2sc(=O)oc2c1Br
  x	u	54	x	-0.2	x	x
37. Cc1cccc(OCCOC(=O)CN2C(=O)NC3(CCCC3)C2=O)c1
  2.6	2%	x	2	3.7	1	-0.5
38. Cc1ccc(Cn2nnc3c(=O)[nH]c(C4CCN(S(=O)(=O)Cc5ccccc5)CC4)nc32)cc1
  5.3	x	-5	-2	4.8	3	-1.1
39. CN1C(=O)C(CC(=O)N2CCN(C(c3ccccc3)c3ccccc3)CC2)N(C)C1=O (centres undefined)
  2.5	0%	9	u	0.4	-2	-2.5
40. c1ccc(-c2nnc(-c3ccccn3)c(-c3ccccn3)n2)nc1
  0.9	u	-14	-1	-3.3	-5	-3.5
41. COc1ccccc1C(=O)Nc1nnc(SCC(=O)NC2CCCC2)s1
  -2.6	x	-8	1	-4.6	4	3.5
42. Cc1ccccc1/C=C1\C(=O)Nc2ccc(F)cc21
  -3.7	-2%	4	-2	0.5	1	0.8
43. COc1ccc(OC)c(-c2csc(NC(=O)CSCC(=O)Nc3cc(C)on3)n2)c1
  x	-6%	x	x	1.9	-2	-1.2
44. O=C(/C=C/c1ccco1)Nc1ccccn1
  -0.6	2%	-3	-16	-394	1	1.8
45. O=C(NC1CCCCCC1)C1CC(=O)N(Cc2ccccc2)C1 (centres undefined)
  -1.1	u	x	-7	-0.2	-7	1.7
46. O=C(Cn1c2ccc(F)cc2c2nc3n(c(=O)c21)CCS3)Nc1ccc(Cl)cc1F
  0.6	-13%	x	3	-3.3	-4	-3.1
47. CCCCn1cnc2c(c(CC#N)nn2-c2ccccc2)c1=N
  x	-3%	x	x	x	-1	2.5
48. CCSCc1nnc(SCC(=O)Nc2nccs2)n1CC
  -0.1	-4%	-14	13	6.5	-4	-0.5
49. Cc1ccc(S(=O)(=O)N2CCC(C(=O)OC(C)C(=O)NCc3ccc4c(c3)OCO4)CC2)cc1 (centres undefined)
  2.3	0%&0%	-20	1	2.6	0	0.8
50. O=C(OCC(CO)OC(CO)n1ccc(=O)[nH]c1=O)c1ccccc1 (centres undefined)
  -2.2	15%	-5	0	2.0	9	1.0
51. CC(C)(C)C(=O)NCCn1ccc2ccccc21
  -0.2	-1%	-14	-1	-0.7	-6	1.6
52. Cc1occc1C(=O)NCc1ccccn1
  -1.7	0%	82*	-4	3.1	0	-3.1
53. Oc1ccc(Cl)cc1CNCC1CCCO1 (centres undefined)
  u	3%	23	12	-0.5	11	-1.2
54. C/C(=N\OCC(=O)Nc1ccc2c(c1)OCCO2)c1ccc2c(c1)OCCO2
  21	63%	1	-17	-2.6	1	-0.7
55. COc1ccc(-c2cc(C)no2)cc1S(=O)(=O)Nc1cccc(C)c1
  -0.4	x	-1	30	-3.2	-15	1.2
56. CC(=O)N1CCc2c(sc3c2c(=O)n(-c2ccccc2)c(=O)n3CC(=O)NCC2CCCO2)C1 (centres undefined)
  -1.0	x	-5	3	0.6	13	6.2

Screen by screen, as entered above:
Nos. 45 to 54 in RanGTP-Impb inh read -1.1, 0.6, x, -0.1, 2.3, -2.2, -0.2, -1.7, u, 21
Nos. 45 to 54 in HNF4A DNA FP read 1.7, -3.1, 2.5, -0.5, 0.8, 1.0, 1.6, -3.1, -1.2, -0.7
Nos. 45 to 54 in ALR H2O2 inh read x, x, x, -14, -20, -5, -14, 82*, 23, 1
